# Assay outcomes: PubChem, PCMD
# FXIIa inh: inhibitors of human coagulation factor XIIa | actives 0.2% (n = 33,000) | AID 701 | inhibition, % at 10 µM | purified human FXIIa, AMC substrate fluorescence, 2 h | P00748; in the data active = inhibition above about 30%;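 also: 0% = enzyme with vehicle only and 100% = no enzyme blank; many of its hits are not listed in these tables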
# Numbers without * were called inactive. These rows are one share of the data, and most or all hits are left out here.
SMILES,FXIIa inh
C=CCc1ccc(OCc2ccc(C(=O)OC)o2)c(OC)c1,6
Cc1ccc(S(=O)(=O)Nc2ccc3nc(C)sc3c2)cc1,-13
COc1ccc2[nH]c(C)c(C(=O)CN3CCN(C/C=C/c4ccccc4)CC3)c2c1,7
COc1ccc2c(c1)Cc1sc(NC(=O)c3ccco3)nc1-2,1
Cn1c(SCC(=O)NCc2ccco2)nnc1-c1ccccc1,7
CCOC(=O)c1cc(OC(=O)c2cccc([N+](=O)[O-])c2)n(-c2ccccc2)n1,5
COC(=O)c1ccc(N2CCC(C)CC2)c(N)c1,-15
CC(C)Cn1c2ccccc2c2cc(C(=O)O)ccc21,5
Cn1c(SCC(=O)NC(=O)NCc2ccco2)nnc1C(F)(F)F,-1

# Two compounds picked at random from those above:
SMILES,FXIIa inh
Cn1c(SCC(=O)NCc2ccco2)nnc1-c1ccccc1,7
CC(C)Cn1c2ccccc2c2cc(C(=O)O)ccc21,5

# A few values from the entries so far:
# Under FXIIa inh, CC(C)Cn1c2ccccc2c2cc(C(=O)O)ccc21 is listed with 5
# Under FXIIa inh, COc1ccc2[nH]c(C)c(C(=O)CN3CCN(C/C=C/c4ccccc4)CC3)c2c1 is listed with 7
# Under FXIIa inh, COC(=O)c1ccc(N2CCC(C)CC2)c(N)c1 is listed with -15
# Under FXIIa inh, C=CCc1ccc(OCc2ccc(C(=O)OC)o2)c(OC)c1 is listed with 6
